TRPML1 ag: activates the human TRPML1 channel | TRPML1-expressing cells, Ca2+ dye fluorescence, FDSS; host cell line not named in the record; reference of the full effect not given here | activation, % (concentration not given with the values) | 410,000 tested, 0.12% active | AID 624414; in the data active = activation above about 50%; inconclusive = about 30% to 50%; inactive = below about 30%; further: 0% is about no effect; the text of the record puts the active cut at 80%
Target sequence (Q9GZU1 whole entry, looked up): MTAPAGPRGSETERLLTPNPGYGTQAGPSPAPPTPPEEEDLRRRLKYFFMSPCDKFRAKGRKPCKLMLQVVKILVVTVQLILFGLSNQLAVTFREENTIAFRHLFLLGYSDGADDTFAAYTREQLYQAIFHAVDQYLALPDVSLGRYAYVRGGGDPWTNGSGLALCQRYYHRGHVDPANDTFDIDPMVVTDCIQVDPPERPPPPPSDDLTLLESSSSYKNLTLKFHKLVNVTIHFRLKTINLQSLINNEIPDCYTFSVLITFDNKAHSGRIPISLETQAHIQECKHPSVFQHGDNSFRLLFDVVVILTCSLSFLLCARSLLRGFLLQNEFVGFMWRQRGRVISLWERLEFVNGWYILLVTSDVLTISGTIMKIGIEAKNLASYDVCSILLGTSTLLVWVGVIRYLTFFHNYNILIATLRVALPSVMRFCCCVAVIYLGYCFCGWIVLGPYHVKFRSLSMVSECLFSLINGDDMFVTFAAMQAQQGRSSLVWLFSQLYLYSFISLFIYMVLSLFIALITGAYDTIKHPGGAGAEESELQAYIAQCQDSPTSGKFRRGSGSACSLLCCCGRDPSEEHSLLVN
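Tetracycline-induced TRPML1-DL cells are seeded and incubated overnight before loading with a no-wash Ca2+ dye and quencher. Agonist activity is taken from the 110 s fluorescence read following compound pin-transfer on an FDSS, before EC80 54-4 challenge.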
Six1-Eya2 inh: inhibitors of human Six1/Eya2 interaction; Q15475+O00167; AlphaScreen GST-Six1/His-Eya2 binding, biochemical; hits give low values; control for the full effect not named in the record; activity change, % (concentration not given with the values); 360,000 tested, 0.56% active; AID 651725; in the data active = activity change below about -65%; inconclusive = about -30% to -65%; inactive = above about -30%; further: on the % scale 0 is the no-effect control and ±100 the full control effect
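Compounds are tested against tagged Six1 and Eya2 proteins bridged by glutathione donor and nickel acceptor beads; after a one-hour incubation at 37 °C without light, AlphaScreen emission is recorded.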
D2 potentiator: human D2 receptor positive allosteric modulation; DiscoveRx D2 beta-arrestin cells, luminescence, 90 min; 100% = 57 uM dopamine signal; P14416; AID 624464; potentiation, % (no concentration beside the values); 360,000 tested, 0.23% active; active = potentiation of 50% or more; inconclusive = 30% to 50%; inactive = 30% or less;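 further: compound concentration not given in the record; tested on top of an EC20 dose of dopamine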
Target sequence (P14416 whole entry, looked up): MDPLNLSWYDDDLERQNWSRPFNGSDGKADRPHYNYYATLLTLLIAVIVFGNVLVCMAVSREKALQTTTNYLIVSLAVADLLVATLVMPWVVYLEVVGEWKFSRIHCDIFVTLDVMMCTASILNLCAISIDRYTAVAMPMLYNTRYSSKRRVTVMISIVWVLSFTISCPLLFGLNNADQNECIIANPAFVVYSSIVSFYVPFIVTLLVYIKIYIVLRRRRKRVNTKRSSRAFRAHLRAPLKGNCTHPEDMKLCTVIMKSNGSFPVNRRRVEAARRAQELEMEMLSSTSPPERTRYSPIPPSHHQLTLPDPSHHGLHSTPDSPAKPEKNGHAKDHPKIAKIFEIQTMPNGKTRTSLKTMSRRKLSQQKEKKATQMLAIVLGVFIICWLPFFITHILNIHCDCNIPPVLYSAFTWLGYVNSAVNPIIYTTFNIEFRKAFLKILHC
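PathHunter D2 cells, attached overnight at 37 deg C, received compound in DMSO plus dopamine at EC20 (50 nM final) for 90 min at 37 deg C. Beta-arrestin recruitment was read as luminescence after 1 h with detection reagent at ambient temperature.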
D2 agonist: activates the human D2 dopamine receptor; 360,000 tested, 0.084% active; DiscoveRx PathHunter D2 beta-arrestin, luminescence, 90 min; 100% = 57 uM dopamine signal; activation, % (no concentration beside the values); P14416; in the data active = activation above about 40%; inconclusive = about 15% to 40%; inactive = below about 15%; further: compound concentration not given in the record; the text of the record calls up to 30% inactive
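Agonist mode: compounds alone added to overnight-plated D2 PathHunter cells for 90 min at 37 C, with 57 uM final dopamine (EC100) defining full response. Beta-arrestin recruitment detected by chemiluminescent reagent, read after 1 h at ambient temperature.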
PINK1 modulator: PINK1 expression modulation. PINK1 immunofluorescence, high-content cytometry, 24 h. Potency, µM (highest dose often 76.6 µM), for the others: top-dose activation (PINK1 increase), hits mostly activators. 410,000 tested, 0.2% active; active = well fitted activation curve with a large enough effect; inconclusive = small, poorly fitted or top-dose-only effect; inactive = flat fitted curve, though single readings scatter; cell line not stated here;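 further: potency means the concentration at half of the fitted maximal effect; % of control where 0% means no effect; nearly all actives have a fitted effect of over 65% in size; a mitochondrial uncoupler was the plate control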
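PINK1 protein level read as immunofluorescence by microplate cytometer in a fixed, stained stable cell line after 24 h exposure to five compound concentrations, with CCCP as control.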
CtBP-E1A inh: inhibitors of CtBP/E1A interaction | AlphaScreen GST-E1A/His-CtBP binding, 1536-well; hits give low values; control for the full effect not named in the record | activity change, % (concentration not given with the values) | 340,000 tested, 0.49% active; in the data active means activity change below about -65%; inconclusive means about -30% to -65%; inactive means above about -30%; further: on the % scale 0 is the no-effect control and ±100 the full control effect
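GST-E1A and His-tagged CtBP (125 nM each as 5X stock) were preincubated with pin-transferred compound for 2 h at 37 °C in the dark, then glutathione donor and nickel acceptor beads were added for 1 h before AlphaScreen reading.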
An asterisk follows results filed as active; u = inconclusive; x = no result given; [ ] = another dose, or the depositor's remark.

SMILES	TRPML1 ag	Six1-Eya2 inh	D2 potentiator	D2 agonist	PINK1 modulator	CtBP-E1A inh
Cn1cccc1CNC(=S)Nc1cc(F)cc(F)c1	0.9	19	-5	-2.1	0.1%	-1
COc1ccc(C2C(C(C)=O)=C(O)C(=O)N2CCCn2ccnc2)cc1 (stereo not given)	0.1	1	-9	0.1	u	6
CC1(c2ccc3ccccc3c2)NC(=O)N(CC(=O)Nc2cccc(S(=O)(=O)N3CCOCC3)c2)C1=O (stereo not given)	0.1	-7	7	0.0	7.8%	6
Cc1ccc(Oc2coc3cc(O)ccc3c2=O)cc1	1.0	-2	2	2.4	-3.3%	5
CC1(C(=O)NS(=O)(=O)c2cccc(F)c2)CCN1C(=O)c1ccco1 (stereo not given)	-0.5	-6	-2	-3.6	0.7%	3
c1ccc(COc2ccc(-c3cc4nc(NCCCn5ccnc5)ccn4n3)cc2)cc1	-0.5	-26	16	u	-0.4%	-14
C=CCNC(=S)N(CC)c1cccc2ccccc12	3.3	4	-8	-5.1	-2.0%	2
CCCc1cc(=O)[nH]c(SCC(=O)Nc2ccc3c(c2)CCC3)n1	0.2	4	-7	3.2	0.4%	5
COc1ccc(C(=O)NCCNc2ccc([N+](=O)[O-])cc2)cc1OC	-0.7	-2	-12	-6.2	0.1%	1
O=C(c1cccs1)N1CCC(c2nc3c(nnn3Cc3ccccc3)c(=O)[nH]2)CC1	1.4	-3	-9	-2.7	7.1%[38.3 µM]	1
NC1=NC2OC(CO)C(O)C2O1 (stereo not given)	1.2	2	-7	-2.7	0.1%	2
S=c1[nH]nc(-c2ccc(Cl)cc2)n1CC1CCCO1 (stereo not given)	0.6	29	-16	-2.2	9.1%[38.3 µM]	57
CC1C=Cc2ccccc2N1C(=O)c1ccccc1 (stereo not given)	-0.5	4	0	-2.9	-0.7%[38.3 µM]	9
CCOC(=O)c1nn(-c2ccc(C)cc2)c(=O)cc1OCC(=O)Nc1ccc(OC)cc1	-0.4	9	-3	-1.6	-0.9%	-19
O=C(c1csc2c1CCCC2)n1cccn1	0.6	5	1	-2.5	6.4%	12
C/C(=C1\SC(N2CCOCC2)=NC1=O)c1ccccc1	0.4	3	-1	0.4	-8.1%[38.3 µM]	-1
CCCCSCCCNC(=O)Nc1cccc(OC)c1	1.1	-4	-10	2.9	13%[38.3 µM]	3
COc1ccc(OC)c(-c2nc(CN3CCCCC3c3cccnc3)c(C)o2)c1 (stereo not given)	0.0	-3	-11	1.2	3.0%	20
CCOC(=O)C(NC(=O)Nc1ccc(F)cc1)(OCC)C(F)(F)F (stereo not given)	1.5	10	-22	4.5	-1.7%	7
CC1(C)NC(=O)N(CC(O)COc2ccccc2-c2ccccc2)C1=O (stereo not given)	-0.8	0	-1	-1.6	0.7%	0
Oc1ccccc1-c1cc(-c2ccccc2)n[nH]1	-0.9	0	-7	-2.6	3.3%	-2
COc1ccc(C(=O)NC2c3ccccc3-c3ccccc32)cc1	1.2	-1	0	-5.1	2.1%	x
Cc1cc(NC(=O)CSc2nnnn2C)n(-c2ccccc2)n1	0.5	5	-9	0.4	0.0%	1
CCn1nnc2cc(C(=O)NCCc3ccccc3F)ccc21	1.1	-1	0	6.3	2.1%	-12
Nc1nnc(N2CCCCC2)s1	0.3	0	10	-0.9	1.4%[38.3 µM]	-6

Further entries.
SMILES	TRPML1 ag	Six1-Eya2 inh	D2 potentiator	D2 agonist	PINK1 modulator	CtBP-E1A inh
CC(Nc1nc(-c2ccccc2)nc2ccccc12)c1ccccc1 (stereo not given)	-0.6	2	-9	-0.8	26%	0
CSc1ncccc1C(=O)OCC(=O)c1ccccc1	-1.2	2	-5	2.0	-0.5%	0
CC(C)C(=O)Nc1ccc(Br)cc1Cl	-0.6	0	-3	-2.7	-1.7%	7
COc1ccccc1C(=O)N/N=C/c1ccc(Cl)s1	-0.7	-6	-16	-3.4	-0.7%	18
CS(=O)(=O)N(Cc1ccccc1)c1ccc(C(=O)NCCSCc2ccco2)cc1	-1.0	-1	-6	-2.2	-4.9%	-3
Clc1ccc(-n2nnnc2-c2ccccc2)cc1	0.6	3	-3	-1.4	3.8%[38.3 µM]	6
COc1ccc([C@H]2CC(=O)C=C(c3cc(OC)ccc3OC)C2)cc1	1.5	-9	-10	-1.9	1.0%	-12
COc1cccc(NC(=O)c2ccccc2N2C(=O)C3C4C=CC(C5CC45)C3C2=O)c1 (stereo not given)	0.2	3	5	-0.2	-0.7%	-13
O=C(O)[C@H](Cc1ccccc1)NC(=O)N1CCCCCC1	1.0	-1	-4	-5.4	-2.3%	5
O=C(COC(=O)COc1cccc(C(F)(F)F)c1)NC1CCCC1	0.4	8	-18	-2.6	1.8%	-7
CCN1C[C@@H]2[C@@H]3C(=O)N(C)C(=O)[C@@H]3[C@](Cc3ccccc3)(C1=O)N2C(=O)c1ccc(C)cc1	-0.7	0	-1	-0.1	0.0%	2
COc1ccc(NC(=O)CN(C)CC(=O)Nc2ccc3c(c2)CCC3)cc1	0.7	-9	-3	-0.3	0.1%	-4
CC(C(=O)NCc1ccccc1)N1C(=O)CN(C)C(=O)c2ccccc21 (stereo not given)	1.9	2	-10	0.4	-2.0%	-2
COc1ccc(CCC(=O)OCC(=O)Nc2ccc(OC)c(OC)c2)cc1OC	0.3	-13	-3	3.0	-0.3%	-22
COc1ccc(C(=O)NNC(=S)NC2CCCCC2)cc1OC	-0.2	-4	-21	-5.6	0.8%[38.3 µM]	7
Cc1cccc(NC(=O)Cn2c(=O)oc3cc(S(=O)(=O)N4CCCC4)ccc32)n1	0.3	6	-13	-4.3	-0.7%	5
O=C(NCc1c(O)ccc2ccccc12)c1ccccc1	0.9	1	0	-1.2	3.9%	2
O=C(NCC1CCCO1)c1onc(CSc2ccc(Cl)cc2)c1C(=O)O (stereo not given)	-0.6	19	-2	3.7	0.6%	x
Cc1cccc[n+]1C1C(c2ccccc2)C(C#N)=C(C(=C=[N-])C#N)NC1(O)C1CC1 (stereo not given)	0.7	-21	1	-3.2	-2.4%	-4
COc1cc(CC(NC(C)=O)C(=O)NC2CCN(C(=O)C3CC3)CC2)cc(OC)c1 (stereo not given)	0.5	7	-11	-5.2	-0.4%	-6
COC(=O)Nc1c(-c2ccccc2)nc2ccccn12	1.6	1	-14	-6.2	0.2%[38.3 µM]	1
O=C1Nc2ccc(Br)cc2C1=Nc1cccnc1	-0.5	1	-41	-13	5.0%	-1
O=C(COC(=O)c1cc(-c2ccc(Cl)s2)nc2ccccc12)NCc1ccco1	4.3	-11	-25	-5.4	12%	-9
CC(C)Cc1nnc(NC(=O)CCC(=O)Nc2ccc3cn[nH]c3c2)s1	3.1	6	-13	-2.8	2.4%	x
CCN(CC)S(=O)(=O)c1ccc(N2CCCC2)c(NC(=O)CC(C)(C)C)c1	1.1	8	-7	0.5	4.7%	5

Next section
SMILES	TRPML1 ag	Six1-Eya2 inh	D2 potentiator	D2 agonist	PINK1 modulator	CtBP-E1A inh
c1ccc2c(c1)CCCN2c1nc(N2CCOCC2)nc(N2CCOCC2)n1	-1.2	-1	-17	-4.1	5.1%	x
COc1ccc(/C=C/C2=Nc3ccccc3NC(C)(C)C2)cc1OC	-0.7	u	-10	-5.5	4.1%	-29
O=C(CSc1nnc(NC(=O)C2CC2)s1)Nc1ccccc1C(F)(F)F	-0.6	0	1	-1.7	0.2%	0
Cc1csc(NC(=O)CSc2nnnn2C)n1	1.2	-3	9	-1.0	-0.9%	0
COc1ccc(CCN2C(=O)COc3ccccc3C2C(=O)NCc2ccccc2)cc1OC (stereo not given)	-0.6	0	x	x	0.0%	1
CCOC(=O)N1CCN(C(=O)CSc2nnc(CNC(=O)c3c(F)cccc3Cl)o2)CC1	0.4	4	4	1.6	-0.3%	5
CC(=O)c1ccccc1OC(=O)c1c(F)cccc1F	0.6	2	-3	-4.8	0.9%	x
CC(NCc1ccc2c(c1)OCO2)C(=O)N1CCc2ccccc21 (stereo not given)	0.4	8	-40	-7.1	3.3%	-16
COCCCC1CCN(C(=O)C2CCC(=O)N(CCc3cccc(F)c3)C2)CC1 (stereo not given)	0.6	-7	-8	-0.9	1.1%	6
Oc1cccc(Oc2ncc(C(F)(F)F)cc2Cl)c1	1.6	4	7	4.3	1.8%	11
O=C(CC(c1ccco1)S(=O)(=O)c1ccccc1)c1ccc(F)cc1 (stereo not given)	0.4	-2	-4	-2.0	9.5%[38.3 µM]	-4
CCOP(=O)(OCC)C(Nc1ccccc1)c1ccco1 (stereo not given)	1.2	4	-8	-0.3	-0.8%	-10
COc1ccc(C2CC(=O)CCN2S(=O)(=O)c2ccc(C)cc2)cc1 (stereo not given)	-0.6	4	x	-1.5	-0.7%	-6
Cc1nnc(SCC(=O)Nc2ccccc2F)n(N)c1=O	1.3	4	-12	-11	1.1%	5
CNC(=S)Nc1ccc([N+](=O)[O-])c(C)c1	1.4	8	-7	-2.6	-0.1%	3
CN1CCC(OC(=O)COc2ccc(F)cc2)CC1	-0.5	0	8	-2.4	-0.6%	-3
Cc1ccccc1NC(=O)c1c(Cl)nc(C)c(Cl)c1C	-0.2	6	-9	-3.2	8.7%	8
CN(c1ccccc1C(=O)Nc1cccc(C(F)(F)F)c1)S(C)(=O)=O	0.1	9	-6	-1.4	4.5%	12

Sorted by heavy-atom count (largest number first): part of the list above
SMILES	TRPML1 ag	Six1-Eya2 inh	D2 potentiator	D2 agonist	PINK1 modulator	CtBP-E1A inh
COc1ccc(CCN2C(=O)COc3ccccc3C2C(=O)NCc2ccccc2)cc1OC (stereo not given)	-0.6	0	x	x	0.0%	1
CCOC(=O)N1CCN(C(=O)CSc2nnc(CNC(=O)c3c(F)cccc3Cl)o2)CC1	0.4	4	4	1.6	-0.3%	5
COCCCC1CCN(C(=O)C2CCC(=O)N(CCc3cccc(F)c3)C2)CC1 (stereo not given)	0.6	-7	-8	-0.9	1.1%	6
c1ccc2c(c1)CCCN2c1nc(N2CCOCC2)nc(N2CCOCC2)n1	-1.2	-1	-17	-4.1	5.1%	x
O=C(CSc1nnc(NC(=O)C2CC2)s1)Nc1ccccc1C(F)(F)F	-0.6	0	1	-1.7	0.2%	0
CN(c1ccccc1C(=O)Nc1cccc(C(F)(F)F)c1)S(C)(=O)=O	0.1	9	-6	-1.4	4.5%	12
CC(NCc1ccc2c(c1)OCO2)C(=O)N1CCc2ccccc21 (stereo not given)	0.4	8	-40	-7.1	3.3%	-16
CCOP(=O)(OCC)C(Nc1ccccc1)c1ccco1 (stereo not given)	1.2	4	-8	-0.3	-0.8%	-10
Cc1ccccc1NC(=O)c1c(Cl)nc(C)c(Cl)c1C	-0.2	6	-9	-3.2	8.7%	8
CN1CCC(OC(=O)COc2ccc(F)cc2)CC1	-0.5	0	8	-2.4	-0.6%	-3
Cc1csc(NC(=O)CSc2nnnn2C)n1	1.2	-3	9	-1.0	-0.9%	0
CNC(=S)Nc1ccc([N+](=O)[O-])c(C)c1	1.4	8	-7	-2.6	-0.1%	3

High-throughput results: PubChem, National Center for Advancing Translational Sciences (NCATS)
